Source: PubChem (several laboratories)
GALR2 ag – GALR2 receptor agonists, primary screen, cell-based; Galanin receptor type 2 (Homo sapiens), O43603; GALR2-expressing cells, agonist activation read-out; activation, %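 (tested at 5 µM)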; 140,000 tested, 0.48% active;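 active = above mean plus 3 SD of all compounds, about 5% in these data, not always enough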;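 also: 0% = vehicle buffer wells and 100% = reference agonist at full effect; tested in CHO reporter cells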
Target sequence (O43603 whole entry, looked up): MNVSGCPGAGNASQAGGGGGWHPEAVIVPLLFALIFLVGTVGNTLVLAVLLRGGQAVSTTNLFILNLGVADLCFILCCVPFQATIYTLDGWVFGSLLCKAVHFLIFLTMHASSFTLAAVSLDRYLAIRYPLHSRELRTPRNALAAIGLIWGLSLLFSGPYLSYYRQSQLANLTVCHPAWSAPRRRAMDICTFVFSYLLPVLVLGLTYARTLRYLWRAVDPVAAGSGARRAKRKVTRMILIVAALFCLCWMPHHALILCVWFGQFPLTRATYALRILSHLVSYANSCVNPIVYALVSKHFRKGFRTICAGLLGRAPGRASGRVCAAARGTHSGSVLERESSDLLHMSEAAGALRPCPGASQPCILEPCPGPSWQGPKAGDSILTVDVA
INS promoter inh – inhibitors of insulin promoter-driven GFP, primary screen, imaging, TRM-6 cells (human fetal islet line), eGFP reporter, cell count. reporter expression induced with tamoxifen. inhibition, % at 2 µM. 130,000 tested, 0.9% active. AID 1273, 2008;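 active = inhibition above the mean plus 3 SD, with well images judged a real hit on visual review, cut at about 60% in these data, passing the limit was not always enough; inconclusive = inhibition over the cutoff but images rejected on review; inactive = inhibition not above the cutoff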
PKD1 inh – inhibitors of human PKD1 kinase, biochemical, fluorescence polarization; Serine/threonine-protein kinase D1 (Homo sapiens), Q15139; PKD1 kinase fluorescence polarization assay; inhibition, %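 (about 10 µM by stock and volumes)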; 200,000 tested, 0.056% active; AID 797, 2007;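 active = inhibition of 50% or more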;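 also: controls were vehicle for no effect and a reference inhibitor for full effect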
HSV replic up – enhancers of HSV replication in host cells, fold increase, host cell viability | maximum fold increase | 220,000 tested, 0.005% active | HSV replication augmentation in cells | AID 1956, 2009;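 active = peak rise of 1.5-fold or more in the series; inconclusive = self-fluorescent or not available for retest; tested in PC3 cells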;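 also: first round at 10 µM; read as green reporter fluorescence; hits show the peak of a series up to 25 µM; 1 = signal of infected wells without compound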
RGS16-Gao HTS – modulators of RGS16 binding to Galphao, primary screen, biochemical, human proteins, multiplexed bead flow cytometry; Regulator of G-protein signaling 16 (Homo sapiens) + Guanine nucleotide-binding protein …; binding response (% of control), % at 10 µM; 220,000 tested, 0.38% active; bead-based flow cytometry RGS16-Galphao binding, fluorescence; actives lie on both sides;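 active = below 25% or above 175%, edge rows of some plates excepted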;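 also: Galphao activated by GDP with aluminum fluoride before binding; 100% = wells without compound and 0% = beads without RGS; some results beyond the cut were filed as inactive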
Target sequence (O15492 whole entry, looked up): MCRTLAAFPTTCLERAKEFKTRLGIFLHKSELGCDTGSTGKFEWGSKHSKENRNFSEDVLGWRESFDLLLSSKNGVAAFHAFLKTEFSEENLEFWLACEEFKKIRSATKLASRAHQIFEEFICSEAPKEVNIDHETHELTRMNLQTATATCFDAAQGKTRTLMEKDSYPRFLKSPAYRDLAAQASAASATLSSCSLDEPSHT
Target sequence (P09471 whole entry, looked up): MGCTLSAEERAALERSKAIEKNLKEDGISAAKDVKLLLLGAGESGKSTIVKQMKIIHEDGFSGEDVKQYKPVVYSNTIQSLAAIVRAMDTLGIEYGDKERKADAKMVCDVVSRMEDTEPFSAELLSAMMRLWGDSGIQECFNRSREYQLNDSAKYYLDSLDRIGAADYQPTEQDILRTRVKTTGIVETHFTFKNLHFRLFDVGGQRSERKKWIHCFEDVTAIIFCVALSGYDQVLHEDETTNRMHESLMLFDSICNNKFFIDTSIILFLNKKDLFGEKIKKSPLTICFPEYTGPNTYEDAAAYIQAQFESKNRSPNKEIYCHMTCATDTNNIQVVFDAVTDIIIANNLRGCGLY
INS promoter inh cell count – second read-out of INS promoter inh, no call of its own (marks repeat the call); normalized cell count, %; measured here: cell count, toxicity; reference of the scale not given here;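 cells exposed to compound for 48 h; stained nuclei by imaging scaled within each plate; lower means fewer cells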
HSV replic up primary fold – recorded beside HSV replic up, whose call it bears; fold increase; compound at 10 µM; measured here: primary screen fold increase 10 uM; tested in PC3 cells;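 GFP signal in the first replicate; 1 = infected wells without compound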
Active calls of the source: *; i = inactive; ? = inconclusive; . = not tested or not shown; & = joins results of further samples.

Molecule	INS promoter inh cell count	RGS16-Gao HTS	GALR2 ag	INS promoter inh	HSV replic up primary fold	PKD1 inh	HSV replic up
Cc1cc(NC(=O)CCN2C(=O)C3C4C=CC(C4)C3C2=O)c2ccccc2n1 (stereo not given)	144	102	-2.8	50	1	12	i
Clc1cc(Cl)c2nc(N3CCCCC3)sc2c1	.	100	-1.6	.	0.95	5	i
CN(Cc1nccn1C)C(=O)c1cc(COc2ccc3ncccc3c2)on1	.	106	.	.	1.2	-2	i
COc1ccc(OC)c2sc(NC(=O)c3ccc(S(=O)(=O)N4CCOCC4)cc3)nc12	.	115	-4.0	.	0.88	-7	i
COc1ccc(C(=O)C[n+]2ccc(-c3nnc4n3CCCCC4)cc2)cc1	.	111	.	.	0.97	.	i
CCOP(=O)(OCC)C(Nc1ccccn1)c1ccc(F)cc1 (stereo not given)	.	102	0.1	.	0.97	3	i
O=C(/C=C/c1cccs1)NC(=S)Nc1ccccc1	.	109	.	.	0.88	-4	i
Cc1ccc(-c2noc(CN(C(=O)c3cccs3)C(C)C)n2)cc1	124	100	-1.3	-9	0.83	-11	i
COC(=O)C/C(O)=C(/N=Nc1cccc(C(F)(F)F)c1)C(=O)OC	102	85	.	9	0.89	-1	i
COc1ccc(NC(=O)C(=O)NNC(=O)C(C)Oc2ccc(Cl)cc2Cl)cc1 (stereo not given)	79	104	.	25	0.96	-5	i
Cc1c(NC(=O)CC(=O)Nc2c(C)n(C)n(-c3ccccc3)c2=O)c(=O)n(-c2ccccc2)n1C	106	104	-0.3	-36	0.81	4	i
Cc1ccc(N=C2SC(C(=O)Nc3ccc(OC(F)(F)F)cc3)C(N)=C2C(=O)Nc2c(C)cc(C)cc2C)cc1 (stereo not given)	.	100	-0.1	.	0.93	-10	i
CCn1c(C(O)c2cccc(OC)c2OC)nc2ccccc21 (stereo not given)	145	107	-2.1	8	0.96	-3	i
COc1ccc(OCc2nc3c4cc(OC)c(OC)cc4nc(=S)n3[nH]2)cc1	98	93	-0.2	-10	0.83	12	i
Cc1cccc(N2CCN(c3cc(C)nc4nnnn34)CC2C)c1 (stereo not given)	.	96	5.4*	.	.	-9	.
Cc1cc(O)cc(O)c1C=NCc1ccco1	79	168	-0.6	14	.	1	?
CCOC(=O)c1c(C)n(C)c2cc(Br)c(O)c(O)c12	.	96	.	.	0.97	.	i
Clc1cccc(Cl)c1CSc1nnc(-c2sccc2-n2cccc2)o1	.	103	-1.4	.	0.94	7	i
O=C(CCc1ccc(S(=O)(=O)NC2CCCCC2)cc1)NCc1ccccc1	102	105	-1.6	-32	0.97	-8	i
Cc1nc2c(C)cccn2c1C(=O)c1ccccc1	.	97	0.0	.	1	-7	i
Cc1ccc(OCC(=O)c2cc(C)c(C)cc2C)c([N+](=O)[O-])n1	75	99	0.8	-16	0.88	1	i
O=C(NCCCn1ccnc1)c1cccc(S(=O)(=O)Nc2ccccc2F)c1	139	112	-1.7	9	0.98	-10	i
CCO[C@@H]1OC(C(=O)Nc2ccccc2)=C[C@H](c2coc3ccccc3c2=O)[C@H]1CCCO	.	103	.	.	0.77	-1	i
CC(=O)Nc1n[nH]c(-c2ccc(C)cc2)c1C	95	101	.	-5	0.9	-2	i
N#CCC(=O)Nc1ccccc1C(=O)O	116	131	-1.3	14	0.76	-7	i
CC(=O)c1ccc(NC(=O)C(C)NCc2ccc(Cl)cc2)cc1 (stereo not given)	.	88	.	.	0.98	-4	i
O=C(Nc1ccccc1C(=O)Nc1nnc(C(F)(F)F)s1)c1ccccc1	.	100	.	.	0.74	.	i
Cc1ccccc1NC(=O)CCn1c(=O)oc2ccccc21	.	104	-0.5	.	0.78	-1	i
O=C(NCc1ccccc1Br)c1ccco1	57	103	-1.9	i	0.9	-7	i
O=C(NC(=S)Nc1cnc2ccccc2c1)c1ccccc1	.	102	.	.	1	-1	i
NC(=O)c1cccc2cc3ccccc3cc12	.	101	.	.	0.93	0	i
O=C(NCCCN1CCOCC1)C1CCC(=O)N1CCc1ccccc1 (stereo not given)	.	108	-1.1	.	0.78	1	i
COc1ccccc1C(=O)C1Nc2ccccc2-c2nnc(SC)nc2O1 (stereo not given)	94	101	-0.4	-17	0.66	-3	i
Cc1ccccc1NC(=S)N(CCN(C)C)C(C)c1cccnc1 (stereo not given)	126	100	.	-29	0.92	3	i
N/C(=N\N=C\c1cccc([N+](=O)[O-])c1)c1nonc1N	.	104	.	.	0.9	.	i
CN1CCN(CC#CC2(O)CCCCC2)CC1	99	107	-1.6	41	1.1	-8	i
O=C(O)c1ccc(S(=O)(=O)NC2CC2)cc1	.	96	.	.	0.92	.	i
CCOCCOC(=O)c1[nH]c2c(c1C)C(=O)CC(c1cccs1)C2 (stereo not given)	.	99	.	.	0.7	-5	i
COc1ccc(S(=O)(=O)N2CCN(C3CCCCCCC3)CC2)cc1	96	105&109	-0.7	9	0.97&0.86	-3&-2	i
CCCCCn1c(=O)[nH]c2cc(C(=O)NCCCN3CCC(C)CC3)ccc2c1=O	.	104	-2.3	.	0.88	-3	i

5 entries picked at random from the list so far, as already listed:
Molecule	INS promoter inh cell count	RGS16-Gao HTS	GALR2 ag	INS promoter inh	HSV replic up primary fold	PKD1 inh	HSV replic up
CCOP(=O)(OCC)C(Nc1ccccn1)c1ccc(F)cc1 (stereo not given)	.	102	0.1	.	0.97	3	i
CCOCCOC(=O)c1[nH]c2c(c1C)C(=O)CC(c1cccs1)C2 (stereo not given)	.	99	.	.	0.7	-5	i
Cc1cc(O)cc(O)c1C=NCc1ccco1	79	168	-0.6	14	.	1	?
CCCCCn1c(=O)[nH]c2cc(C(=O)NCCCN3CCC(C)CC3)ccc2c1=O	.	104	-2.3	.	0.88	-3	i
NC(=O)c1cccc2cc3ccccc3cc12	.	101	.	.	0.93	0	i

(more compounds)
Molecule	INS promoter inh cell count	RGS16-Gao HTS	GALR2 ag	INS promoter inh	HSV replic up primary fold	PKD1 inh	HSV replic up
O=C(Nc1ccc(CN2CCOCC2)cc1)c1cccs1	.	103	-1.1	.	0.88	-12	i
N=c1n(CCOc2ccccc2)c2ccccc2n1CCN1CCOCC1	94	94	-1.8	3	0.94	5	i
COC(=O)c1ccccc1NC(=O)Cc1ccccc1OC	125	68	-0.8	47	1	-1	i
CC(Sc1nc(-c2ccccc2)cc(C(F)(F)F)n1)C(=O)N1CCCC1 (stereo not given)	.	102	-3.7	.	0.67	-3	i
CCOC(=O)N1CCN(c2c(NCCCN(C)c3ccccc3)c(=O)c2=O)CC1	.	101	-1.6	.	1	1	i
COc1ccc(C(=O)NC(=S)SCC(=O)O)cc1	.	103	.	.	1.1	.	i
CN1CCN(C2=Cc3ccccc3Sc3cc(F)c(F)cc32)CC1	86	32	0.1	-25	0.73	2	i
CCOc1ccc(NS(=O)(=O)c2cc(Cl)ccc2OC)cc1	91	101	-0.7	20	0.97	0	i
CCOC(=O)N/N=C(\c1ccccc1)C(O)c1ccccc1 (stereo not given)	.	106	.	.	1.1	-3	i
Cc1nc2ccc(NC(=O)c3cc(S(=O)(=O)N4CCOCC4)ccc3C)cc2s1	102	103	-2.1	-20	1.1	-2	i
CC1(C)CN=c2s/c(=C\c3ccc(Cl)cc3)c(=O)n2C1	94	103	.	7	0.83	-10	i
O=C(/C=C/c1ccccc1)N/C(=C\c1ccco1)C(=O)O	.	104	.	.	1.2	-1	i
CC(=O)C1C(c2ccc3ncccc3c2)NC(=O)NC1(O)C(F)(F)F (stereo not given)	145	103	-1.4	12	0.98	-3	i
C=CCNC(=O)c1ccc(-c2ccc([N+](=O)[O-])cc2)o1	169	93	-1.5	5	0.89	-1	i
Cc1ccc(C(=O)N2CCN(C3c4cccc5cccc(c45)C3NS(=O)(=O)c3ccccc3)CC2)cc1 (stereo not given)	62	104	0.3	-44	1.1	0	i
CCCc1cc(=O)oc2cc(OCc3nn[nH]n3)ccc12	132	103	1.2	40	1.1	2	i
CCCOC(=O)c1ccc(NC(=O)/C=C/c2cccs2)cc1	59	101	-0.7	31	1.5	0	i
CCOC(=O)c1c(N=CN(C)C)c2cc([N+](=O)[O-])cnc2n1C	.	103	.	.	0.96	.	i
Cc1cc(C)c2c(C)nn(-c3ccccc3)c2n1	103	102	-1.0	-11	0.87	2	i
COC(=O)CCC(=O)NC(=S)Nc1sc(C)c(C)c1C(N)=O	7	110	1.3	-68	0.67	1	i
Cc1cc(/C=C2\SC(=S)NC2=O)c(C)n1-c1ccc(O)cc1	.	97	.	.	1.1	.	i
O=C1C=C(c2ccccc2)OC2(CCCC2)O1	137	102	-2.8	-7	0.89	-3	i
Cc1cc([N+](=O)[O-])nn1CC(=O)NCc1cccs1	137	104	-2.3	0	0.98	-4	i
CCOC(=O)C1=C(C)NC2(O)c3ccccc3C(=O)C12O (stereo not given)	119	102	-3.1	5	0.96	-9	i
CC1CC(=O)N(CC(=O)Nc2ccc3c(c2)OCCO3)c2ccccc2S1 (stereo not given)	102	104	-0.9	6	0.83	2	i
Cc1ccc(-c2cc(C(=O)N/N=C/C=C/c3ccccc3)n[nH]2)s1	80	168	-0.6	37	0.88	1	i
CCC(C)(NC(=O)Cc1c[nH]c2ccccc12)C(=O)NC1CCCCC1 (stereo not given)	128	100	-2.5	-36	0.85	2	i
CN(C(=S)Nc1ccc(Oc2ccccc2)cc1)c1ccc(O)cc1	127	157	-1.4	38	.	-2	.
CCOC(=O)C1(Cc2ccccc2C(F)(F)F)CCN(C2CCN(C(C)C)CC2)CC1	106	98	.	-112	0.74	6	i
CC(c1nnnn1C1CCCCC1)N(Cc1ccccc1)Cc1cccnc1 (stereo not given)	19	142	0.3	-248	1	4	i
Brc1ccc(C2=CC(c3ccco3)n3ncnc3N2)cc1 (stereo not given)	.	103	-2.5	.	.	7	?
O=C(Nc1nc2c(s1)CCCC2=O)c1cnccn1	113	101	-2.0	-31	1	3	i

Of the compounds above, 3 contain an aryl thioether with sulfur outside any ring.
Molecule	INS promoter inh cell count	RGS16-Gao HTS	GALR2 ag	INS promoter inh	HSV replic up primary fold	PKD1 inh	HSV replic up
Clc1cccc(Cl)c1CSc1nnc(-c2sccc2-n2cccc2)o1	.	103	-1.4	.	0.94	7	i
COc1ccccc1C(=O)C1Nc2ccccc2-c2nnc(SC)nc2O1 (stereo not given)	94	101	-0.4	-17	0.66	-3	i
CC(Sc1nc(-c2ccccc2)cc(C(F)(F)F)n1)C(=O)N1CCCC1 (stereo not given)	.	102	-3.7	.	0.67	-3	i
